PINK1 expr mod: A Quantitative High throughput Screen to Identify Chemical Modulators of PINK1 Expression. hit rate 0.2% among 410,000. PINK1 immunofluorescence, high-content cytometry, 24 h. Potency, µM (titrated, usually from 76.6 µM), for inactives: at the highest dose activation (PINK1 increase), actives largely listed as activators; active = well fitted activation curve with a large enough effect; inconclusive = small, poorly fitted or top-dose-only effect; inactive = flat fitted curve, though single readings scatter; cell line not stated here;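 further: potency means the concentration at half of the fitted maximal effect; % of control where 0% means no effect; nearly all actives have a fitted effect of over 65% in size; a mitochondrial uncoupler was the plate control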
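Readout is PINK1 immunofluorescence, quantified alongside mitochondrial, cell and nuclear markers by laser-scanning microplate cytometry. Cells from a stable line were exposed to compound titrations (5 concentrations) for 24 hours, with CCCP controls.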
D2 potentiator: Beta-Arrestin HTS for Positive Allosteric Modulators of the Human D2 Dopamine Receptor: Potentiators. hit rate 0.23% among 360,000. D(2) dopamine receptor (Homo sapiens), P14416. AID 624464, 2012. DiscoveRx D2 beta-arrestin cells, luminescence, 90 min; 100% = 57 uM dopamine signal. potentiation, % (concentration not given with the values); active = potentiation of 50% or more; inconclusive = 30% to 50%; inactive = 30% or less;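 further: compound concentration not given in the record; tested on top of an EC20 dose of dopamine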
Target sequence (P14416 whole entry, looked up): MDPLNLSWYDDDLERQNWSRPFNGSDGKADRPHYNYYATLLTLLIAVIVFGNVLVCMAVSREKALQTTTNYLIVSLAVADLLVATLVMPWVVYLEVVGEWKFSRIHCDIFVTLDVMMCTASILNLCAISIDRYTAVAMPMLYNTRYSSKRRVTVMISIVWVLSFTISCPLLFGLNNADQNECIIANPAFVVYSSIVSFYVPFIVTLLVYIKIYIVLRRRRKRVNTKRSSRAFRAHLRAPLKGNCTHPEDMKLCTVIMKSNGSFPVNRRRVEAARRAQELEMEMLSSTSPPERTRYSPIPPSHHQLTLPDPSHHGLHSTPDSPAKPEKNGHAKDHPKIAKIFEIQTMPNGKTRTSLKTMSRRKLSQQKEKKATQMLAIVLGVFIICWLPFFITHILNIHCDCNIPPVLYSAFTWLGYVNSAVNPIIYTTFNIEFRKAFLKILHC
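PathHunter D2 cells, attached overnight at 37 deg C, received compound in DMSO plus dopamine at EC20 (50 nM final) for 90 min at 37 deg C. Beta-arrestin recruitment was read as luminescence after 1 h with detection reagent at ambient temperature.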
D2 ag: Beta-Arrestin HTS for Positive Allosteric Modulators of the Human D2 Dopamine Receptor: Agonists; hit rate 0.084% among 360,000; D(2) dopamine receptor (Homo sapiens), P14416; DiscoveRx PathHunter D2 beta-arrestin, luminescence, 90 min; 100% = 57 uM dopamine signal; AID 624465, 2012; activation, % (concentration not given with the values); in the data active = activation above about 40%; inconclusive = about 15% to 40%; inactive = below about 15%; further: compound concentration not given in the record; the text of the record calls up to 30% inactive
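DiscoveRx PathHunter D2 beta-arrestin cells (2,100/well) attached overnight, then compound-stimulated 90 min at 37 C in HBSS/10 mM HEPES/0.1% Tween-20 buffer; beta-galactosidase complementation read by luminescence after 1 h at ambient temperature. Dopamine 57 uM final (EC100) as control.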
Six1-Eya2 inh: qHTS Assay for Inhibitors of the Six1/Eya2 Interaction. Homeobox protein SIX1 (Homo sapiens) + Protein phosphatase EYA2 (Homo sapiens), …. AlphaScreen GST-Six1/His-Eya2 binding, biochemical; stronger effect = lower value; control for the full effect not named in the record. activity change, % (concentration not given with the values). hit rate 0.56% among 360,000; in the data active = activity change below about -65%; inconclusive = about -30% to -65%; inactive = above about -30%; further: on the % scale 0 is the no-effect control and ±100 the full control effect
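AlphaScreen with GST-Six1 and His-Eya2 (5X mix: 250 nM and 500 nM), glutathione donor and nickel acceptor beads; buffer 50 mM Tris pH 8.0, 300 mM NaCl, 1 mM TCEP; 1 h at 37 C in the dark.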
TRPML1 blocker: qHTS for Inhibitors of the Human Mucolipin Transient Receptor Potential 1 (TRPML1); Mucolipin-1 (Homo sapiens), Q9GZU1; TRPML1-inducible cells, Ca2+ dye fluorescence, FDSS; stronger effect = lower value; inhibition of EC80 agonist-evoked calcium signal; activity change, negative = inhibition, % (test concentration not listed); hit rate 0.02% among 390,000; AID 624415, 2012; in the data active means activity change below about -50%; inconclusive means about -30% to -50%; inactive means above about -30%;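 further: stimulus is agonist 54-4 at its EC80 concentration; on the % scale 0 is the no-effect control and ±100 the full control effect; compound concentration not given in the record; the text of the record puts the active cut at -80%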
Target sequence (Q9GZU1 whole entry, looked up): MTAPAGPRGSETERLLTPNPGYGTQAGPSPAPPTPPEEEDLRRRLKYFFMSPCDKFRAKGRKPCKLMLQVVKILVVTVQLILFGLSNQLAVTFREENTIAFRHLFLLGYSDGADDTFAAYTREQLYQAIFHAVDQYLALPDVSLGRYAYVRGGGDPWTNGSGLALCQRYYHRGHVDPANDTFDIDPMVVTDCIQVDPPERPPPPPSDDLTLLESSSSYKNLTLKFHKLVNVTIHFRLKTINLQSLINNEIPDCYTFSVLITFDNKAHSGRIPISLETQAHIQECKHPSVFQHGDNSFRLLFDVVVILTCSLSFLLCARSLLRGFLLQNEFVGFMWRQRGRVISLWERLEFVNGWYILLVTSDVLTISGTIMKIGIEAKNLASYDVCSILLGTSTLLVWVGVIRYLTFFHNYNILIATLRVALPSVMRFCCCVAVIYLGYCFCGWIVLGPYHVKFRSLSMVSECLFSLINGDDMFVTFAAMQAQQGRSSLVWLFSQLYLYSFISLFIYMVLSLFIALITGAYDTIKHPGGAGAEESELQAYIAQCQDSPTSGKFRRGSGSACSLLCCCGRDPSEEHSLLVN
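Calcium fluorescence in TRPML1-DL cells induced overnight with Tet: a 110 s read after compound pin addition, then a 110 s antagonist read after challenge with 54-4 at 4 uM final (EC80).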
TRPML1 agonist: qHTS for Agonists of the Human Mucolipin Transient Receptor Potential 1 (TRPML1); TRPML1-expressing cells, Ca2+ dye fluorescence, FDSS; host cell line not named in the record; reference of the full effect not given here; activation, % (concentration not given with the values); hit rate 0.12% among 410,000; in the data active = activation above about 50%; inconclusive = about 30% to 50%; inactive = below about 30%; further: 0% is about no effect; the text of the record puts the active cut at 80%
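In this qHTS format, compounds were pin-transferred onto Ca8-dye-loaded TRPML1-DL cells induced with Tet overnight, and intracellular Ca2+ fluorescence was recorded kinetically for 110 s after a 10 s baseline. A subsequent 4uM final 54-4 (EC80) addition followed by a second 110 s read served as the antagonist phase.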
Active calls of the source: *; u = inconclusive; x = no result given; [ ] = dose if it differs, or a comment.

smiles	PINK1 expr mod	D2 potentiator	D2 ag	Six1-Eya2 inh	TRPML1 blocker	TRPML1 agonist
COc1ccc(NS(=O)(=O)c2cc(NC(=O)C(CC(C)C)NC(N)=O)ccc2N2CCOCC2)cc1 (stereo unspecified)	0.5%	0	-2.1	13	-11	-0.5
S=c1[nH]nc(CNc2ccc(Cl)cc2)n1Cc1ccccc1	-0.5%	-13	5.0	-1	-1	0.2
O=C(OCC(=O)N1c2ccccc2Sc2ccccc21)c1cccnc1	0.9%	-7	3.3	-3	1	1.2
COc1ccccc1OCCC(=O)OCC(=O)NCc1ccc(F)cc1	0.6%	-27	1.4	4	-1	-1.6
CC1CCCC(NC(=O)c2ccc3c(c2)NC(=O)CS3)C1C (stereo unspecified)	0.0%	-5	2.1	-2	9	3.9
Cc1ccc(N2C(=O)C(Cl)=C(N3CCOCC3)C2=O)cc1Cl	-0.8%	-8	-1.4	-5	-9	-0.1
CCc1ccc2c(c1)NC(c1cccs1)=NC(c1ccc(F)cc1)=N2	3.0%	x	x	x	12	1.8
OCCn1nc2c3ccccc3nc-2n(-c2ccccc2)c1=S	-0.9%	9	1.5	1	-5	-0.5
COc1ccc(-c2noc(C(C)n3nc(C)c([N+](=O)[O-])c3C)n2)cc1OC (stereo unspecified)	0.4%	14	-2.7	-8	10	1.1
CC(=O)c1cn(CC(=O)Nc2ccc(C)cc2C)c2ccccc12	3.0%	-7	-1.9	3	-9	-0.6
CC(=O)c1cccc(CN2CCCC(CCC(=O)NCc3ccccc3F)C2)c1 (stereo unspecified)	4.4%	-6	-0.1	u	-8	0.4
COC(=O)C1=CN(Cc2ccccc2)C=C(C(=O)OC)C1c1ccc(OC)c(OC)c1	6.4%	-15	-0.7	-1	x	x
COc1cc(/C(C)=N/NC(=O)CN2CCN(S(=O)(=O)c3ccc(C)cc3)CC2)ccc1O	-0.5%	-14	-0.6	-2	14	1.1
C#CCn1c(=NC(=O)c2cccs2)sc2cccc(OC)c21	4.1%	-2	-1.8	7	71	2.3
COc1ccccc1-c1cc(C(F)(F)F)nc(S(=O)(=O)CCCC(=O)O)n1	14%[38.3 µM]	-18	-4.9	-9	-21	1.1
CN(C)C1N(C(=O)c2ccccc2)N=C2c3ccccc3S(=O)(=O)N21 (stereo unspecified)	1.7%	2	-4.7	3	6	0.1
CN1CCN(C(=O)c2ccc(-c3ccc(Br)cc3)o2)CC1	2.5%	-28	-1.5	-6	-7	0.3
Cc1ccc2oc(=O)c(/C=C(\O)C(C)(C)C)nc2c1	-1.6%	0	7.3	-6	0	-0.3
COc1ccc(CNc2nc3ccccc3n2C(C)C)c(O)c1	1.5%	-11	-2.4	-10	4	-0.3
O=C(CSc1nccn(-c2ccc(Br)cc2)c1=O)NC1CCCC1	7.6%	-3	-1.7	-3	4	0.0
O=C(Nc1ccccc1C(F)(F)F)c1ncn[nH]1	0.9%	5	-2.5	-74*	-2	2.2
O=C(NCCc1ccccc1)C1CC(=O)N(C2CCCCC2)C1 (stereo unspecified)	-0.2%	-20	-2.1	-1	13	0.3
CCN1CCN(c2ccc(S(=O)(=O)N3CCOCC3)cc2NC(=O)/C=C/c2cccc(OC)c2OC)CC1	0.6%	-7	-0.6	-7	1	-0.2
O=C(N/N=C/c1ccccn1)c1cc(-c2ccc3ccccc3c2)n[nH]1	2.3%	6	u	u	11	2.7
CCOc1ccc(Br)cc1S(=O)(=O)Nc1cccc(S(=O)(=O)Nc2ccccc2C(=O)O)c1	1.5%	-5	3.9	52	-27	-0.4
CCOC(=O)c1c(C)[nH]c(C(=O)/C(C#N)=C/c2ccc(OC)c(OC)c2)c1C	-0.3%	-4	-3.2	4	55	0.5
CCCCCC(=O)N1C[C@H](O)[C@@H](n2cc(COC(=O)c3ccccc3)nn2)C[C@@H]1c1ccc(OC)cc1	-2.1%	5	2.5	2	18	-0.2
Cc1ccc(NC(=O)CCCc2ccccc2)nc1	2.2%	1	0.7	3	-5	0.2
O=C1C2C(c3ccccc3)CC=CC2[C@H](c2ccoc2)N1Cc1ccccc1 (stereo partly specified)	0.8%	-10	-2.6	-12	37	0.7
Cc1cc(C)n(CC(=O)NC2C(=O)N3C(C(=O)O)=C(CSc4nnc(C)s4)CSC23)n1 (stereo unspecified)	-0.4%	-3	-8.1	-12	1	-0.4
CCC(=O)N1CCN(c2ccccc2NC(=O)COc2ccc(C(C)C)cc2)CC1	16%	-7	-0.4	-2	79	0.6
COc1ccc(C(=O)N2CCN(c3ccc(NC(=O)c4ccco4)cc3)CC2)cc1	2.3%	7	-0.1	-1	8	-0.1
COc1cc(C(=S)N2CCOCC2)cc(OC)c1OC(=O)Cc1ccc(F)cc1	0.2%	-1	-3.4	-8	27	-0.7
COc1ccc(CC(CC(=O)O)C(=O)Nc2ccc(Cl)c(Cl)c2)cc1 (stereo unspecified)	-0.1%	-4	-2.6	-17	10	0.1
Cc1ccc(Cl)cc1N1CCN(C(=O)Cc2csc(Nc3nc(=S)[nH]c4ccccc34)n2)CC1	13%	-1	-7.3	-17	0	-1.0
CCOC(=O)C1(Cc2ccc(OC)cc2)CCN(C(=O)CN2CCOC2=O)CC1	-0.6%	-7	0.5	1	-3	0.4
CCOc1cccc(C(=O)Nc2ccc3c(c2)OCCO3)c1	1.7%	-7	-1.4	1	3	-0.2
CCN(CC(=O)Nc1c(F)cccc1F)C(=O)c1ccc(N2CCOCC2)c([N+](=O)[O-])c1	-1.1%	-17	-2.5	-4	7	-0.7
COc1ccc(N/N=C(/Oc2ccc([N+](=O)[O-])cc2)C(C)=O)cc1	-1.5%	-10	-2.2	-6	35	0.6
Cc1ccc(-n2c(O)c(C=NC3CCS(=O)(=O)C3)c3ccccc3c2=O)c(C)c1 (stereo unspecified)	0.5%	2	-0.4	-2	0	-0.3

Exported with values under each structure: entries from further up
Results follow in this order: PINK1 expr mod	D2 potentiator	D2 ag	Six1-Eya2 inh	TRPML1 blocker	TRPML1 agonist
- COc1ccc(C(=O)N2CCN(c3ccc(NC(=O)c4ccco4)cc3)CC2)cc1
    2.3%	7	-0.1	-1	8	-0.1
- COc1cc(C(=S)N2CCOCC2)cc(OC)c1OC(=O)Cc1ccc(F)cc1
    0.2%	-1	-3.4	-8	27	-0.7
- COc1ccc(CC(CC(=O)O)C(=O)Nc2ccc(Cl)c(Cl)c2)cc1 (stereo unspecified)
    -0.1%	-4	-2.6	-17	10	0.1
- Cc1ccc(Cl)cc1N1CCN(C(=O)Cc2csc(Nc3nc(=S)[nH]c4ccccc34)n2)CC1
    13%	-1	-7.3	-17	0	-1.0
- CCOC(=O)C1(Cc2ccc(OC)cc2)CCN(C(=O)CN2CCOC2=O)CC1
    -0.6%	-7	0.5	1	-3	0.4
- CCOc1cccc(C(=O)Nc2ccc3c(c2)OCCO3)c1
    1.7%	-7	-1.4	1	3	-0.2
- CCN(CC(=O)Nc1c(F)cccc1F)C(=O)c1ccc(N2CCOCC2)c([N+](=O)[O-])c1
    -1.1%	-17	-2.5	-4	7	-0.7
- COc1ccc(N/N=C(/Oc2ccc([N+](=O)[O-])cc2)C(C)=O)cc1
    -1.5%	-10	-2.2	-6	35	0.6
- Cc1ccc(-n2c(O)c(C=NC3CCS(=O)(=O)C3)c3ccccc3c2=O)c(C)c1 (stereo unspecified)
    0.5%	2	-0.4	-2	0	-0.3

(listing goes on)
Key to letters: A = PINK1 expr mod; B = D2 potentiator; C = D2 ag; D = Six1-Eya2 inh; E = TRPML1 blocker; F = TRPML1 agonist
Cc1cc(NC(=O)C(C)SCC(=O)Nc2ccccc2N2CCCCC2)no1 (stereo unspecified)
  A = 0.6%	B = -11	C = -3.4	D = 4	E = 3	F = 0.1

CCC1(c2ccccc2)NC(=O)N(CC(=O)NCC2COc3ccccc3O2)C1=O (stereo unspecified)
  A = 2.4%	B = u	C = -1.2	D = 5	E = 12	F = 0.3

COc1ccc(CN2C(=O)c3cccnc3C2=O)cc1S(=O)(=O)N1CCCCC1C (stereo unspecified)
  A = 3.2%	B = 0	C = -1.7	D = 0	E = -12	F = 0.1

COc1ccc(-c2nc(-c3cccc(C)c3)nc(N3CCN(C)CC3)c2C#N)cc1
  A = 5.1%	B = -17	C = 0.1	D = 9	E = -14	F = 0.6

CCOC(=O)C(=CNc1ccc2c(c1)c1ccccc1n2CC)C(=O)OCC
  A = 2.8%	B = -4	C = 4.0	D = 35	E = 24	F = 0.9

NCCSSCCN
  A = 2.5%	B = 1	C = -5.5	D = -15	E = 8	F = -1.0

CC(=O)c1cccc(NC(=O)c2ccc(-n3cncn3)c3ccoc23)c1
  A = 0.7%	B = 5	C = -2.1	D = -20	E = x	F = -0.5

COC(=O)N/N=C/c1cn(CCCOc2ccccc2)c2ccccc12
  A = -2.7%	B = 0	C = 1.4	D = -11	E = 24	F = 1.7

Cn1c(NC(=O)c2cc(-c3ccc4c(c3)OCO4)nc3ccccc23)cc(=O)n(C)c1=O
  A = 7.2%	B = -5	C = -3.0	D = -8	E = 0	F = 0.4

COc1ccc(N2C(=O)[C@H]3[C@@H](C2=O)C2c4ccccc4C=NN2[C@H]3C(=O)C(C)(C)C)cc1 (stereo partly specified)
  A = -1.2%	B = -10	C = -3.8	D = 0	E = 16	F = 3.9

COc1cccc(OC)c1OCCCCn1cnc2ccccc2c1=O
  A = 0.2%	B = -8	C = -2.9	D = -3	E = -4	F = 2.3

CCn1ncc(S(=O)(=O)Nc2cc(Cl)ccc2C)c1C
  A = 0.7%	B = -10	C = -0.4	D = -7	E = 0	F = 0.1

O=C(O)CCc1nc2cccnc2n1Cc1ccccc1
  A = 0.0%[38.3 µM]	B = -4	C = -2.4	D = 4	E = 10	F = 0.4

O=C(Cn1c(=O)n(-c2ccc(F)cc2)c(=O)c2sccc21)NC1CCCCC1
  A = 4.3%	B = -8	C = -3.8	D = 8	E = -13	F = -0.5

O=C(NCc1nnc(SCc2ccc(C(F)(F)F)cc2)n1-c1ccccc1)C12CC3CC(CC(C3)C1)C2
  A = u	B = -20	C = -0.5	D = 2	E = 38	F = -0.7

O=C(Cc1c(F)cccc1Cl)NNC(=O)c1ccc(Br)s1
  A = 4.1%	B = -1	C = -2.5	D = 5	E = 13	F = 3.6

COc1ccc(CNC(=O)CNC(=O)c2ccc(C(C)(C)C)cc2)cc1OC
  A = -0.2%	B = -4	C = 0.9	D = 6	E = 7	F = 0.5

Source: PubChem (National Center for Advancing Translational Sciences (NCATS))
